FPR binder: human FPR ligands by binding competition, primary screen, cell-based, FPRL1 counter-screen, flow cytometry; fMet-Leu-Phe receptor (Homo sapiens), P21462; 0.74% of 24,000 active; AID 440, 2006; FPR-expressing cells, fluorescent ligand binding; inhibition, %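 (tested at 6.7 µM)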;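 note: 0% = buffer wells and 100% = receptor blocker peptide wells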
Target sequence (P21462 whole entry, looked up): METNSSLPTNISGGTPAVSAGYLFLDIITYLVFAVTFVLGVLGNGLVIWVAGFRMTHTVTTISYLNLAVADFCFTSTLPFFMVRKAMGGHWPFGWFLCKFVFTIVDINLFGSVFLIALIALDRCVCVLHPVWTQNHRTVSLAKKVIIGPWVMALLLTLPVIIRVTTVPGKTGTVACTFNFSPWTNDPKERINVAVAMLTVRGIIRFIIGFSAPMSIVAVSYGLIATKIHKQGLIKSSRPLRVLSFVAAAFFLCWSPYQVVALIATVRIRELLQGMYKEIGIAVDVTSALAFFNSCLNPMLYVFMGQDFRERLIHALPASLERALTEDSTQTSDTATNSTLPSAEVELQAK
VCAM-1 augmentation: enhancers of VCAM-1 display on endothelial cells, imaging, high-content imaging, pooled HUVEC, TNFa stimulus (AID 457) | Pooled HUVEC, TNFa-induced VCAM-1 immunofluorescence imaging; hits of this screen are not shown here | calls only | 0.2% of 10,000 active;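 active = a top-ranked rise in VCAM-1 staining upheld on image or statistical review; inactive = the rest, including candidates rejected on review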;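 note: compounds tested at 5 µM in the well; cells exposed to compound for 24 hours before fixing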
VCAM-1 down: inhibitors of TNFa-induced VCAM-1 surface display, cell-based, plate reader, pooled HUVEC, TNFa stimulus (AID 454); 0.2% of 10,000 active; inhibition, % at 5 µM; HUVEC TNFa-induced VCAM-1 surface immunofluorescence, plate reader; numbers were filed only for top-ranked candidate wells;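 active = compound among top-ranked inhibitors of TNF-induced VCAM-1 adhesion protein staining, with the hit upheld by image or statistical review; inactive = the rest, including hits rejected on review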;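 note: 0% = TNFa with vehicle and 100% = cells without TNFa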
VCAM-1 down imaging: inhibitors of TNFa-induced VCAM-1 surface display, imaging, high-content imaging, pooled HUVEC, TNFa stimulus (AID 456); HUVEC TNFa-induced VCAM-1 surface expression, immunofluorescence imaging; numbers were filed only for top-ranked candidate wells; inhibition, % at 5 µM; hits with a dose series show IC50 in µM; 0.2% of 10,000 active;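 active = top tenth filtered wells with inhibition above zero that passed visual or statistical confirmation; inactive = the rest, including hits rejected on review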;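 note: 0% = stimulated vehicle wells and 100% = unstimulated cells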
FPRL1 ligand: human FPRL1 ligands by binding competition, primary screen, cell-based, FPR counter-screen, flow cytometry; AID 441, 2006; inhibition, %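 (tested at 6.7 µM)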; FPRL1-expressing cells, fluorescent ligand binding inhibition; 0.3% of 24,000 active; N-formyl peptide receptor 2 (Homo sapiens), P25090;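 note: 0% = buffer alone and 100% = receptor blocker peptide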
Target sequence (P25090 whole entry, looked up): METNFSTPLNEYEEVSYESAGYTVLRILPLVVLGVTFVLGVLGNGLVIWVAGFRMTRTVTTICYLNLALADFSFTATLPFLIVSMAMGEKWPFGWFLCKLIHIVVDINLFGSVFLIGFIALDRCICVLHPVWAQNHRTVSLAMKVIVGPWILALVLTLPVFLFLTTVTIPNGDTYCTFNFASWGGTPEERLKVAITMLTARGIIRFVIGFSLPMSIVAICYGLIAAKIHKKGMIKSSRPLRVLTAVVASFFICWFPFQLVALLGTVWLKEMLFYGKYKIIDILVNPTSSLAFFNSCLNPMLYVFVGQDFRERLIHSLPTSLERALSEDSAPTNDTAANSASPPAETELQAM
* hit, by the source's call; i = inactive; ? = inconclusive; . = no result given.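 Rule for the calls, unless noted: active = mean above 30%; inconclusive = self-fluorescent; inactive = the rest.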

compound,FPR binder,VCAM-1 down imaging,VCAM-1 down,FPRL1 ligand,VCAM-1 augmentation
CCc1ccc(CNc2ccc3c(c2)ncn3C)cc1,4,.,.,0,.
CC(C)OC(=O)c1ccc(NC(=O)C2C3CC4OC(=O)C2C4C3)cc1 (centres undefined),-8,i,i,0,i
CCOc1cc(C2C(C#N)=C(N)Oc3n[nH]c(CC)c32)ccc1OCCN1CCOCC1 (centres undefined),2,i,i,-1,i
CCOC(=O)c1c(C)n(C)c2ccc(OCC(N)=O)cc12,-1,.,.,-2,.
CCCNC(=O)C(NS(=O)(=O)c1cccc2nsnc12)c1ccccc1 (centres undefined),-4,.,.,-10,.
COC(=O)C1C2C=CC3(CN(c4cccc(C)c4)C(=O)C13)O2 (centres undefined),6,.,.,-4,.
COc1ccc(C2N(C(=O)c3ccccc3)CCN2C(=O)c2ccccc2)cc1,-1,i,i,2,i
O/N=C/c1ccc(OCC(O)COc2ccc(/C=N/O)cc2)cc1,0,i,i,13,i
COC(=O)c1ccc2c(=O)n(CCCCCC(=O)N3CCN(c4ccc(F)cc4)CC3)c(=O)[nH]c2c1,2,.,.,0,.
O=C(Nc1cccc(C(F)(F)F)c1)C1CCCN1S(=O)(=O)c1cccc2cccnc12 (centres undefined),0,.,.,-3,.
COc1ccc(Cl)cc1NC(=O)CCN1CCN(c2ccccc2C)CC1,-6,i,i,-1,i
Cc1cc(C)n2nc[n+](C)c2n1,-1,i,i,-2,i
O=S(=O)(c1cccc(F)c1)N1CCN(Cc2ccc3c(c2)OCO3)CC1,-10,.,.,1,.
Cc1cccc(NC(=O)CCNS(=O)(=O)c2cccc3nsnc23)c1,-2,.,.,0,.
CN(Cc1ccccc1)C(=O)c1ccccc1NC(=O)c1ccco1,-6,i,i,-4,i
O=C(O)C12CC3CC(C1)CC(n1cnc(Cl)n1)(C3)C2,-2,.,.,-4,.
CCOc1ccc(-c2cc(CCCC(=O)NCCc3ccc(OC)c(OC)c3OC)no2)cc1,4,.,.,5,.
CC(=O)C1=C(O)C(=O)N(Cc2ccco2)C1c1ccc(F)cc1 (centres undefined),-1,i,i,7,i
CC(=O)OCCCCON1C(=O)c2ccccc2C1=O,0,.,.,5,.
Cc1ccc(-c2nc(CS(=O)(=O)CC(=O)NC3CCCCC3C)c(C)o2)cc1 (centres undefined),1,.,.,-5,.
Cc1cc(C)n2nc(S(=O)(=O)NCCc3ccccc3)nc2n1,-1,.,.,-2,.
COc1ccc(S(=O)(=O)NCc2ccco2)cc1-c1nnc2c3ccccc3c(C)nn12,4,i,i,-4,i
COc1ccccc1C1/C(=C(/O)c2ccc(C)cc2)C(=O)C(=O)N1CC(C)O (centres undefined),-10,.,.,1,.
Cc1ccc(/C(O)=C2\C(=O)C(=O)N(CCCN(C)C)C2c2ccccn2)cc1 (centres undefined),6,i,i,3,i
O=C(NC1CCS(=O)(=O)C1)OC1CCCCC1 (centres undefined),-8,i,i,5,i
COc1ccc(S(=O)(=O)N2CCN(c3cccc(C)c3C)CC2)cc1,-2,.,.,-4,.
CCCn1cc(C(CC(=O)O)C(=O)O)c2ccccc21 (centres undefined),3,i,i,7,i
CC1=C(C(N)=O)C(c2cccnc2)n2nc(-c3cccc(C)c3)nc2N1 (centres undefined),-3,.,.,3,.
COc1ccc2oc(=O)c(C(=O)N3CCN(C45CC6CC(CC(C6)C4)C5)CC3)cc2c1,-1,.,.,11,.
CCOc1ccc(NC(=O)c2oc3ccccc3c2NC(=O)CC)cc1,-2,.,.,-4,.
Cc1ccc(C)c(Cn2cnc3c(cnn3C(C)(C)C)c2=O)c1,9,.,.,13,.
CCOC(=O)N1CCN(C(=O)c2ccc3nc(SCc4ccc(F)cc4)n(C)c3c2)CC1,-3,.,.,-6,.
Cc1cc(Nc2ccc(F)cc2Cl)n2ncnc2n1,-2,.,.,6,.
CCn1cc(C(=O)NC2CCc3ccccc32)c(=O)c2ccc(C)nc21 (centres undefined),8,i,i,0,i
CCCNC(=O)c1ccc2c(c1)ncn2-c1ccccc1OC,0,.,.,-5,.
COC(=O)C(CCSC)NC(=O)C(NC(=O)C1CCC(C)CC1)C(C)C (centres undefined),5,.,.,3,.
CC(O)c1nc2ccc(Cc3ccc4nc(C(C)O)[nH]c4c3)cc2[nH]1 (centres undefined),5,.,.,10,.
COCCOC(=O)c1[nH]c2c(c1C)C(=O)CC(c1ccc(N(C)C)cc1)C2 (centres undefined),-6,i,i,-5,i
Cc1nc2cc(-c3cccc(F)c3)nn2c(C)c1CCC(=O)N1CCN(c2ccccn2)CC1,-1,.,.,-3,.
O=C(CN1CCN(C2CCCCC2)CC1)c1ccc2cc[nH]c2c1,-10,.,.,4,.
CSc1nnc(Cn2c(=O)sc3ccccc32)n1-c1ccccc1C,-2,.,.,-3,.
CCc1ccccc1S(=O)(=O)Cc1ccc(C(=O)NCC2CCCO2)o1 (centres undefined),1,.,.,-3,.
CCN(c1ccccc1)S(=O)(=O)c1cnc[nH]1,9,.,.,1,.
CCSc1oc(-c2ccco2)nc1S(=O)(=O)c1ccc(F)cc1,0,.,.,2,.
OCCN1CCN(c2nc(-c3ccccc3)c3cc(Cl)ccc3n2)CC1,-14,.,.,-5,.

Molecules listed so far with an aryl thioether with sulfur outside any ring (3):
compound,FPR binder,VCAM-1 down imaging,VCAM-1 down,FPRL1 ligand,VCAM-1 augmentation
CCOC(=O)N1CCN(C(=O)c2ccc3nc(SCc4ccc(F)cc4)n(C)c3c2)CC1,-3,.,.,-6,.
CSc1nnc(Cn2c(=O)sc3ccccc32)n1-c1ccccc1C,-2,.,.,-3,.
CCSc1oc(-c2ccco2)nc1S(=O)(=O)c1ccc(F)cc1,0,.,.,2,.

Additional results follow:
compound,FPR binder,VCAM-1 down imaging,VCAM-1 down,FPRL1 ligand,VCAM-1 augmentation
Cc1ccc(C2=Nc3ccccc3NC(C)(c3ccc(C)o3)C2)o1 (centres undefined),-6,i,i,4,i
CN1CCCC(OC(=O)c2ccc3c(c2)OCCO3)C1 (centres undefined),-5,i,i,-5,i
O=C(OCc1cccs1)c1ccccc1NS(=O)(=O)c1ccc2c(c1)OCCO2,-6,i,i,-3,i
Cc1ccc2nc(CSc3nnc(-c4ccco4)n3-c3ccccc3)cc(=O)n2c1,-3,i,i,7,i
O=C(NCCCN1CCOCC1)c1ccc(CS(=O)(=O)c2c(Cl)cccc2Cl)o1,-10,i,i,-7,i
CC(C)CCNC(=O)Cn1c(=O)oc2cc(S(=O)(=O)N3CCc4ccccc43)ccc21,7,.,.,6,.
CCOC(=O)c1ccc(NC(=O)Cn2cc3c(n2)CCC(C)C3)cc1 (centres undefined),7,i,i,4,i
COc1cccc(CC(NC(C)=O)C(=O)NC2CCN(c3c4c(nc5ncnn35)CCC4)CC2)c1 (centres undefined),-6,i,i,-7,i
Cc1cccc(N2CCN(C(=O)C3CCN(c4nnc(-n5cccc5)s4)CC3)CC2C)c1 (centres undefined),1,.,.,-2,.
Cc1[nH]c(=O)[nH]c(=O)c1S(=O)(=O)N1c2ccc(F)cc2CCC1C (centres undefined),2,i,i,7,i
O=c1cc(CO)oc(C(Nc2ccccn2)c2ccsc2)c1O (centres undefined),15,.,.,-4,.
O=C(c1oc(=O)c2ccccc2c1-c1ccccc1)N1CCC(O)CC1,3,.,.,2,.
COc1ccccc1CN1CC(C(=O)NC2CCCCC2)CC1=O (centres undefined),1,.,.,-2,.
C=CCOc1nc2c(c(=O)n(C)c(=O)n2C)n1C,-47,i,i,?,i
CCOC(=O)CC(=O)Nc1c(C)cc(C)cc1C,-6,i,i,3,i
C/C(N)=C(/C#N)C(=O)COC(=O)c1cc(S(=O)(=O)N2CCCCC2)ccc1C,-2,i,i,-8,i
COC(=O)c1c(C)nc2ccccc2c1C(=O)O,1,.,.,-3,.
Cc1ccccc1NC(=O)C1Cc2ccccc2C(=O)O1 (centres undefined),-2,i,i,-1,i
CN1C(=O)c2ccc(S(=O)(=O)c3ccc(C(=O)O)cc3)cc2C1=O,-7,.,.,14,.
COc1ccc(-n2c(SCC(N)=O)nc3sc4c(c3c2=O)CCN(C)C4)cc1,1,i,i,4,i
COc1ccc(Br)cc1S(=O)(=O)N1CCOCC1,7,i,i,0,i
c1cn2c(NC3CCCC3)c(-c3ccc(N4CCOCC4)cc3)nc2cn1,-2,.,.,0,.
Cc1ccc(NC(=O)CCn2c(=O)oc3ccccc32)cc1,2,.,.,5,.
CC1CCc2nn(CC(=O)NCCC3=CCCCC3)cc2C1 (centres undefined),3,.,.,0,.
COc1ccc(-c2cc(CCCC(=O)NCCc3cc(OC)ccc3OC)no2)cc1,4,.,.,-12,.
CCOc1ccccc1N(C)C(=O)C1CCN(S(=O)(=O)c2cccc3nonc23)CC1,4,.,.,-1,.
CCOC(=O)N1CCN(C(=O)CCc2c(C)nc3nc(C)nn3c2C)CC1,-6,.,.,-3,.
CC1=C(c2ccc(C)cc2)S(=O)(=O)N(CC(=O)O)C1=O,0,.,.,-2,.
COc1ccc(-c2coc3cc(O)ccc3c2=O)cc1OC,0,.,.,0,.
Cc1oc2cc3c(C(=O)OCCN(C)C)c(C)oc3cc2c1C(=O)OCCN(C)C,-4,i,i,2,i
O=C(CN1C(=O)c2ccccc2C1=O)Nc1cccc2cccnc12,0,.,.,3,.
CC(NCCC(c1ccccc1)c1ccccc1)c1ccccc1 (centres undefined),2,i,i,2,i
O=C(c1ccc(N2CCCC2=O)cc1)N1CCCCCC1,-7,.,.,6,.
COC(=O)c1cc(Br)c(=O)n(CCc2ccc(F)cc2)c1,-5,i,i,-6,i
COc1ccc(CCNc2nc(-c3ccco3)cc(C(F)(F)F)n2)cc1OC,0,.,.,-2,.
Cc1ccc(N2C(=O)c3ccc(C(=O)NCCN4CCOCC4)cc3C2=O)cc1,-4,.,.,-5,.
C=C(C)Cn1c(CCCNC(=O)CC)nc2ccccc21,3,.,.,-3,.
COc1ccc(-n2c(Cc3cccn3C)nnc2SCC(=O)Nc2cccc(OC)c2)cc1,-1,i,i,1,i
COCCN(C(=O)c1csnn1)C(C(=O)NC1CCCCC1)c1cccs1 (centres undefined),-1,i,i,-8,i
COc1ccc(C2CC(=O)c3c(C)nc(N4CCN(c5ccccc5)CC4)nc3C2)cc1 (centres undefined),-6,i,i,-10,i
Cn1nccc1C(=O)NCCN1C(=O)OC(C)(C)C1(C)O (centres undefined),-5,.,.,4,.
CCN(CC)c1ccc(NC(=O)CN2C(=O)CC(C)(C)S(=O)(=O)c3ccccc32)c(C)c1,3,i,i,4,i
CCCCOC(=O)c1ccc(NC(=O)c2cnc3n(c2=O)CCS3)cc1,-2,.,.,-2,.
Cc1ccc(NC(=O)CSc2nnc(Cc3cccn3C)n2-c2ccc(F)cc2)cc1,12,i,i,8,i
COc1cccc(-c2nnc(SCC(=O)Nc3cc(C)on3)o2)c1,-6,.,.,1,.
CCOc1cccc2c1OC1(C)CC2NC(=O)N1c1cccc(F)c1 (centres undefined),-2,.,.,7,.
CCc1cc2c(=O)c(-c3cnn(-c4ccccc4)c3)c(C(F)(F)F)oc2c(CN(C)C)c1O,-5,.,.,-5,.
Cc1cc(NC(=O)COC(=O)C2COc3ccccc3O2)no1 (centres undefined),-2,i,i,0,i
CCOc1ccc(-c2cc(CCCC(=O)Nc3cc(OC)ccc3OC)no2)cc1,-5,.,.,3,.
CCOC(=O)N1CCC(C(N)=O)CC1,1,.,.,-2,.
O=C1NC(c2ccccc2)(C(F)(F)F)SC2=NCCCN12 (centres undefined),-9,i,i,4,i
CC(=O)Nc1ccc(S(=O)(=O)NC(CC(=O)NCCCN2CCOCC2)C(C)C)cc1 (centres undefined),-4,.,.,-6,.
Cc1csc(NC(=O)C(CC(C)C)NS(=O)(=O)c2ccc3c(c2)oc(=O)n3C)n1 (centres undefined),-5,.,.,-6,.
CCc1ccc(-c2nc(CN3CCC(C(=O)N4CCN(c5ccccn5)CC4)CC3)c(C)o2)cc1,0,.,.,7,.

An excerpt; the hit share may differ from the screen's.
